Compound activity from PubChem.
fixLJ activator = activators of Burkholderia fixLJ two-component system, primary screen, B. multivorans, GFP reporter | B. multivorans fixK-promoter GFP reporter, 18 h; hits give high values | z-score (test concentration not listed) | actives 0.3% (n = 29,000) | AID 1918990, 2023;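 active = replicate mean overnight rise in green fluorescent reporter signal, 3 or more SD over negative controls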;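 note: score is relative to vehicle wells of the plate; 300 nL library stock went into each well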
* marks the source's active call; other numbers are inactive results. The list is partial; rates above refer to the full screens.

SMILES | fixLJ activator
O=C1CC(c2cccc(Cl)c2Cl)c2cc3c(cc2N1)OCCO3 (stereo unspecified) | -0.08
COc1ccc(-c2cc(C(=O)O)n(Cc3ccccc3)n2)cc1 | -0.8
COc1ccc(OC)c(Nc2cc(C(=O)NCc3ccccc3)c3ccccc3n2)c1 | 4.2*
CC(NC(=O)c1ccc(Nc2nc3ccccc3n3nnnc23)cc1)c1ccccc1 (stereo unspecified) | -0.1
COc1ccc(Nc2nc(-c3ccccc3)c3cc(Br)ccc3n2)cc1 | 0.34
Cc1ccc(CNc2nc3c(c(=O)n(C)c(=O)n3C)n2Cc2ccc(Cl)cc2)cc1 | -1.01
CCn1nc(C)cc1C(=O)N1CCCN(c2cc(OC)nc(OC)n2)CC1 | -0.26
COc1ccc2oc(=O)c(C(=O)NCCc3c(C)[nH]c4c(Cl)cccc34)cc2c1 | 1.58
Cc1ccc(-n2c(=O)c3cccnc3n2CC(=O)NCc2ccc(Cl)cc2)cc1 | -1.17
Cc1ccc(Cl)cc1NC(=O)CSCc1cnn(-c2ccccc2)c1-n1cccc1 | 1.95
CCOC(=O)c1cnc2cc(-c3ccc(Cl)cc3)nn2c1-c1ccccc1 | 0.57
CCCc1ccc(S(=O)(=O)N2CCC[C@]3(CCCC3O)C2)cc1 (stereo partly specified) | -0.53
CCOc1ccccc1CNC(=O)CCCn1ncn2c(cc3occc32)c1=O | -3.21
COc1ccc(-c2cc(OC(=O)c3ccccc3Cl)c3c(C)oc(C)c3c(=O)c2)cc1OC | 0.28
Cc1ccc(Cl)cc1C(=O)NC1(C(N)=O)CCCCCC1 | 0.18
CN(C)C(=O)N1CCC(C(=O)NCCCSCc2ccc(F)cc2)CC1 | -0.49
CC(C)c1ccc(NC(=O)Cn2c(=O)n(CC3CCC(C(=O)NCCc4ccccc4)CC3)c(=O)c3ccccc32)cc1 (stereo unspecified) | 0.75
COc1ccc(CCNC(=O)c2nc(SCc3ccc(F)cc3)ncc2Cl)cc1OC | -0.56
Cc1cc(C)cc(NC2=C(c3ccccc3)C(=O)c3ccccc32)c1 | 3.95*
Cc1nc(C(N)C(C)C)n(CC(=O)NCCc2noc(-c3ccccc3)n2)n1 (stereo unspecified) | 0.32
CC(=O)c1ccc(NS(=O)(=O)c2cccc(S(=O)(=O)c3ccc(Cl)cc3)c2)cc1 | 0.32
Cc1oc2ncn(C)c(=O)c2c1C(=O)Nc1ccc(F)cc1 | -1.59
COc1ccc(CCNC(=O)C2=C(C)C(=O)OC23CCCCC3)c(OC)c1OC | -1.44
C=C(C)CSc1nc2sc3c(c2c(=O)n1CCCC)CCCC3 | 0.76
CCc1nccn1CCC(=O)NCC(c1sccc1C)N(C)C (stereo unspecified) | 1.48
CCOC(=O)c1cc2c(=O)n3ccccc3nc2n(Cc2ccco2)c1=NC(=O)c1cccc(C)c1 | -2.07
CCOC(=O)c1ccc(NC(=O)CCc2c(C)nc3c(c(C)nn3C(C)(C)C)c2C)cc1 | 0.15
CC(C)c1ccc2c(c1)NC(c1ccncc1)=NC(c1cccs1)=N2 | 0.49
Cc1cc(C(F)(F)F)nc(CCNC(=O)CC2CCc3ccccc32)n1 (stereo unspecified) | 0.47
CCC(=O)N1c2ccc(S(=O)(=O)CCC(=O)Nc3ccc(OC)cc3OC)cc2CC1C (stereo unspecified) | -0.63
COc1cc(C2c3c(oc4cc(C)c(C)cc4c3=O)C(=O)N2CCCN2CCOCC2)ccc1O (stereo unspecified) | -0.94
COc1cccc(C(=O)c2c(N)c(-c3nc(-c4ccccc4)cs3)c3ccccn23)c1 | -0.71
CCOc1ccc(NC(=O)CCSc2nc(-c3ccc4c(c3)OCO4)cc(C(F)(F)F)n2)cc1 | -0.59
CCCN(Cc1ccccc1F)C(=O)c1cccc(NCC(=O)O)c1 | -0.83
COc1ccc(-c2cc3nc(-c4ccc(C)cc4)cc(C(F)(F)F)n3n2)cc1 | 0.12
CC(O)c1cc2n(n1)CCCN(Cc1cccc(OCC(N)=O)c1)C2 (stereo unspecified) | -3.98
N#Cc1cc2c(nc1SCC(=O)Nc1ccc(F)c(Cl)c1)C1CCN2CC1 | -0.51
COc1cccc(C(=O)N2CC(=O)Nc3ccc(C)cc3C2c2ccc(F)cc2)c1OC (stereo unspecified) | -0.13
CCOC(=O)C1(C)C=C(Nc2ccc(C(N)=O)cc2)C(=O)N1c1ccccc1 (stereo unspecified) | -0.8
O=C(CNS(=O)(=O)c1cccs1)N1CCN(c2ccccc2Cl)CC1 | -0.5
CC1=C(C(=O)N2CCN(c3ccccc3)CC2)C2(CCCCC2)OC1=O | -1.07
CCCN(CCC)CCNC(=O)CN1C(=O)COc2ccc(S(=O)(=O)N3CCC(C)CC3)cc21 | -0.11
CCS(=O)(=O)N1CC2COC[C@]2(C(=O)NCCCn2ncc3ccccc32)C1 (stereo partly specified) | -2.82
CC(C)(C)c1ccc(-c2noc(CCC(=O)Nc3cccc(Cl)c3)n2)cc1 | -0.69
CN(C)C1CN(C(=O)c2ccc(-c3cccc4c(N)ccnc34)cc2)CC1O (stereo unspecified) | 0.02

Exported with each value named: entries from further up
SMILES: Cc1cc(C)cc(NC2=C(c3ccccc3)C(=O)c3ccccc32)c1
  fixLJ activator: 3.95*
SMILES: Cc1nc(C(N)C(C)C)n(CC(=O)NCCc2noc(-c3ccccc3)n2)n1 (stereo unspecified)
  fixLJ activator: 0.32
SMILES: CC(=O)c1ccc(NS(=O)(=O)c2cccc(S(=O)(=O)c3ccc(Cl)cc3)c2)cc1
  fixLJ activator: 0.32
SMILES: Cc1oc2ncn(C)c(=O)c2c1C(=O)Nc1ccc(F)cc1
  fixLJ activator: -1.59

Next part.
SMILES | fixLJ activator
CCc1nccn1S(=O)(=O)c1cc(Br)ccc1Br | -1.71
CCOc1ccc(NCc2cccn2-c2nnc(N3CCC(C(=O)NCCc4ccc(OCC)c(OCC)c4)CC3)s2)cc1 | -1.15
Cc1ccc(-c2nc3ccccn3c2Nc2ccc3c(c2)OCCO3)o1 | -1.99
COc1ccc2c(c1)Cc1sc(NC(=O)c3cccc(C)c3)nc1-2 | -1.11
NC(CO)C(=O)NCc1cccnc1Oc1cccc(C(F)(F)F)c1 (stereo unspecified) | -1.16
C[N+]12CCC(CC1)C(OC(=O)C(O)(c1ccccc1)c1ccccc1)C2 (stereo unspecified) | 0.41
Cc1cc(C)c(Cn2c(C(O)c3ccccc3)nc3ccccc32)c(C)c1 (stereo unspecified) | 1.4
COc1ccccc1CNC(=O)CCn1c(=O)c2ccccc2n(CC(=O)Nc2ccc(Br)cc2F)c1=O | -0.4
Cc1ccc(CNCc2ccccc2)s1 | -1.23
Cc1nc(CCNC(=O)C2CCOc3ccccc3C2)cc(=O)[nH]1 (stereo unspecified) | -0.67
CCN1CC2(CCC1=O)CCN(C(=O)c1ccc(OC)cc1O)CC2 | 1.85
O=C(CCn1c(=O)c2ccccc2n(CC(=O)Nc2cccc(F)c2)c1=O)NCCc1ccccc1 | -1.35
COc1ccc(OC)c(NC(=O)c2ccc3c(SCC(=O)O)c4c(nc3c2)CCCC4)c1 | -1.36
CCCNC(=O)N1CCC2(CC1)CC(=O)N(Cc1cc(F)cc(F)c1)C2 | -0.32
CN(C)C(=O)N1CCC(C(=O)NC2COCC2Cc2ccncc2)CC1 (stereo unspecified) | -2.62
CCOc1ccc(C(c2c(C)[nH]n(-c3ccccc3)c2=O)c2c(C)[nH]n(-c3ccccc3)c2=O)cc1OC | -3.85
CC(C)CCNC(=O)[C@@H](c1ccccc1)N1Cc2ccccc2C1=O | -0.76
CCc1nccn1CC(C)NCc1cc(-c2ccc(OC)cc2)on1 (stereo unspecified) | -1.79
Cc1nccn1-c1ccc(NC(=O)C2CCCN2C(=O)Cc2ccsc2)cc1 (stereo unspecified) | -0.21
Cc1sc2ncnc(N3CC(O)C(Cc4ccncc4)C3)c2c1C (stereo unspecified) | -0.77
Cn1c(=O)oc2cc(S(=O)(=O)NCCC(=O)Nc3ccc(F)c(Cl)c3)ccc21 | -0.22
CCc1ccc(NC(=O)C(NS(=O)(=O)c2cccc3nsnc23)c2ccccc2)cc1 (stereo unspecified) | -1.08
COc1ccc(C2C(C(N)=O)=C(C)Nc3nc(CCCO)nn32)c(OC)c1 (stereo unspecified) | -1.77
Cc1ccc(NC(=O)CN(C)S(=O)(=O)c2cccc3nsnc23)c(C)c1 | -1.17
COc1ccc(OCC(=O)Nc2ccc(Cl)c(-c3nc4ncccc4o3)c2)cc1 | -0.88
CCOC(=O)c1c(C)c(-c2ccccc2)n(CC(=O)NCc2ccccc2)c1C | -1.63
Cc1cc(N2CCN(c3cccc(C)c3C)CC2)n2nc(C)c(-c3ccc(Cl)cc3)c2n1 | -0.01
O=S(=O)(c1ccccc1)c1nc(-c2ccco2)oc1SCc1ccc(F)cc1 | 1.12
CCN1C(=O)c2ccccc2S(=O)c2ccc(C(=O)N3CCN(c4cccc(Cl)c4)CC3)cc21 (stereo unspecified) | -0.19
COc1cc(C(=O)NC2(C(=O)O)CC2)c(Cl)cc1OC(C)C | -0.95
CCc1ccccc1NC(=O)C1CCCN(c2nnc(-n3c(C)ccc3C)s2)C1 (stereo unspecified) | -0.2
COc1ccccc1C(=O)Nc1nc(-c2ccccc2)ns1 | -1.5
Cc1ccc(-c2nn(-c3ccccc3)c3c2cnc2ccccc23)cc1C | -2.37
CCCc1cc(=O)oc2cc(C)c3c(C(C)(C)C)coc3c12 | -1.01
O=C(NCc1cccc(-n2cccn2)c1)N1CCC(O)(Cn2ccnc2)CC1 | -0.86
Cc1cccc(NC(=O)CCn2cnnn2)c1 | -1.74
CCOc1ccc(CC(=O)N2CCCC(c3ccn(CC(=O)O)n3)C2)cc1 (stereo unspecified) | -1.2
CCOC(=O)Cc1ccc(NC(=O)NC(C)c2c(-n3cccc3)sc(C)c2C)cc1 (stereo unspecified) | -0.34
CCN(CCc1nc2ccc(OC)cc2[nH]1)C(=O)C1CCC(=O)N(C2CC2)C1 (stereo unspecified) | -0.9
O=C(Cn1c(=O)n(-c2ccc(Cl)cc2)c(=O)c2sc3ccccc3c21)NC1CCCCC1 | -1.18
COc1ccc(Cn2nnc3c(=O)[nH]c(C4CCCN(C(=O)c5ccccc5Cl)C4)nc32)cc1OC (stereo unspecified) | -0.14
Cc1ccc(-n2c(CC(C)C)nnc2SCC(=O)O)cc1 | -1.34
O=S(=O)(Nc1ccc(F)cc1F)c1ccc(Br)s1 | -1.61
CCc1nn2c(=O)cc(COc3ccc(/C=C(\C#N)C(=O)Nc4ccc(C)cc4)cc3)nc2s1 | 0.58
O=C1CCCN1CC#CCN1CCCC1 | -1.15

Quoted from the listing.
`O=S(=O)(Nc1ccc(F)cc1F)c1ccc(Br)s1` in fixLJ activator reads -1.61
`COc1ccc(Cn2nnc3c(=O)[nH]c(C4CCCN(C(=O)c5ccccc5Cl)C4)nc32)cc1OC` (stereo unspecified) in fixLJ activator reads -0.14
`O=C(NCc1cccc(-n2cccn2)c1)N1CCC(O)(Cn2ccnc2)CC1` in fixLJ activator reads -0.86
`CCc1nn2c(=O)cc(COc3ccc(/C=C(\C#N)C(=O)Nc4ccc(C)cc4)cc3)nc2s1` in fixLJ activator reads 0.58
`O=C(Cn1c(=O)n(-c2ccc(Cl)cc2)c(=O)c2sc3ccccc3c21)NC1CCCCC1` in fixLJ activator reads -1.18
`COc1ccccc1C(=O)Nc1nc(-c2ccccc2)ns1` in fixLJ activator reads -1.5

(more compounds)
SMILES | fixLJ activator
CCc1nn(CC(=O)N(C)Cc2ccccc2)c(=O)c2cc3sccc3n12 | 0.35
COc1ccc(OC)c(Nc2sc(C(=O)c3ccccc3)c(N)c2S(=O)(=O)c2ccccc2)c1 | -1.14
Cc1ccc(NC(=O)COc2ccc3oc4c(c3c2)CCCC4)cc1C | 0.35
CCc1nn(CCCC(=O)N2CCN(c3ccc(OC)cc3)CC2)c(=O)c2cc3occc3n12 | -2.54
Cc1oc2ccc(O)c(CN3CCCC3)c2c1C(=O)Nc1cccc(Cl)c1C | -1.38
CCOCCCNC(=O)c1cc2c(=O)[nH]c3ccccc3c2n1C | 0.02
CN(C)c1nc2c(c(=O)[nH]1)CCN(C(=O)CCC(F)(F)F)C2 | -1.35
CC(=O)N1CCN(c2ccc(OC[C@H]3CO[C@](Cn4ccnc4)(c4ccc(Cl)cc4Cl)O3)cc2)CC1 | -1.88
O=C(Nc1ccccc1)N(Cc1c[nH]c2ccccc12)C1CCCCCC1 | 0.35
CCn1cnnc1CCNC(=O)c1ccc(-c2nccc(OC)n2)cc1 | -3.08
Cc1ccc(-c2nc3ccccc3o2)cc1NC(=O)Cc1ccc(Cl)cc1 | -0.64
CCOC(=O)CNC(=O)c1cc2c(=O)n3cccc(C)c3nc2s1 | -1.3
CC(=O)c1cccc(-n2c(=O)c3c4c(sc3n(Cc3ccccc3Cl)c2=O)CN(C(C)=O)CC4)c1 | 0.25
CC(=O)N1CCCN(c2cc(C3CCOC3)nc(N)n2)CC1 (stereo unspecified) | 0.25
CN1CCSc2ccc(C(=O)NCc3ccccc3F)cc21 | 2.12

Part of the list above, as comma-separated lines.
compound,fixLJ activator
CN(C)C(=O)N1CCC(C(=O)NC2COCC2Cc2ccncc2)CC1 (stereo unspecified),-2.62
CCOc1ccc(CC(=O)N2CCCC(c3ccn(CC(=O)O)n3)C2)cc1 (stereo unspecified),-1.2
CC(C)(C)c1ccc(-c2noc(CCC(=O)Nc3cccc(Cl)c3)n2)cc1,-0.69
COc1ccc(-c2cc3nc(-c4ccc(C)cc4)cc(C(F)(F)F)n3n2)cc1,0.12
N#Cc1cc2c(nc1SCC(=O)Nc1ccc(F)c(Cl)c1)C1CCN2CC1,-0.51

The list goes on.
SMILES | fixLJ activator
O=C1N(CCC2CCCCC2)CCCC1(O)CNCc1cccc(F)c1 (stereo unspecified) | -0.13
CCCN(C(=O)COc1cc(=O)n(CC)c2ccccc12)c1ccc(C(C)C)cc1 | -0.36
COc1cccc(-c2n[nH]c3c2C(c2cccc(O)c2)N(C)C3=O)c1 (stereo unspecified) | 0.28
Nc1c(C(=O)NCc2ccc(Cl)cc2)sc2nc(-c3ccc(F)cc3)ccc12 | 0.12
Cc1nc2cc(-c3cccc(F)c3)nn2c(C)c1CCC(=O)N1CCN(c2ccc(F)cc2)CC1 | 0.83
COC(=O)c1c(Oc2ccc(Br)cc2)nnc(-c2ccccc2)c1-c1ccccc1 | -0.74
Cc1ccc(NC(=O)Cn2cnc3sc(C(=O)O)c(C)c3c2=O)cc1Cl | -1.96
Cc1ccccc1Nc1c(-c2ccccc2O)nc2sccn12 | 1.74
